# CHT allo act = allosteric activators of human choline transporter CHT; AID 488977; B-score at 10 µM; 310,000 compounds, 0.49% hits; CHT-expressing cells, membrane potential dye, choline EC20; stronger effect = higher value; LV-AA mutant CHT in HEK293 cells; Q9GZV3;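 active = initial fluorescence not abnormally high and integrated response B-score, plate-corrected, over 3 SD above library mean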
# Target sequence (Q9GZV3 whole entry, looked up): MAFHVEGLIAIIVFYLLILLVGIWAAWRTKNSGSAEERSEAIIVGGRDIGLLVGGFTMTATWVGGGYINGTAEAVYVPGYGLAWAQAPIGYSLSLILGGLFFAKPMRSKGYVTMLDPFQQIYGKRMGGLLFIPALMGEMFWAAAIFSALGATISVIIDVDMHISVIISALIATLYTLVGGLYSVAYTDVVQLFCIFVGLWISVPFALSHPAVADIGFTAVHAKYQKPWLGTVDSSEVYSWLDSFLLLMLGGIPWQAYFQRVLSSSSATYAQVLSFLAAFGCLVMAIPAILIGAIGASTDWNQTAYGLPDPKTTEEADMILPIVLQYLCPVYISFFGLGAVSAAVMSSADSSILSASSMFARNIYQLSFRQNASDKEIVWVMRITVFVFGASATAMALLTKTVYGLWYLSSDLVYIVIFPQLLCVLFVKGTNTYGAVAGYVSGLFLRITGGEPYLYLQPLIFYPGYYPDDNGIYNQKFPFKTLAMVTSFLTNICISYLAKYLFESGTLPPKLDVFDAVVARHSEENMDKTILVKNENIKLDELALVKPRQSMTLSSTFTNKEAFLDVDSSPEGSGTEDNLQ
# Calls only; i = inactive. An excerpt; most or all hits stand in other tables.
compound | CHT allo act
CCOC(=O)C(NC(C)=O)(Nc1ccc(S(=O)(=O)Nc2cc(C)on2)cc1)C(F)(F)F (stereo not drawn) | i
CCNC(=O)CSc1nnc(-c2ccc(OC)cc2)n1CC(C)C | i
COc1ccc(NC(=O)C(=O)NCCN2CCN(C(=O)C(c3ccccc3)c3ccccc3)CC2)cc1 | i
CC1=CC(C)(C)C(C(=O)O)C(C(=O)O)C1 (stereo not drawn) | i
COc1cc(-c2c(-c3ccc4c(c3)OCO4)noc2-c2ccsc2)ccc1F | i
CCOC(=O)CCc1c(C)c2ccc(OCc3nn[nH]n3)c(C)c2oc1=O | i
CC1C(=O)N2CCCc3cc(NC(=O)C(=O)NCc4ccc5c(c4)OCO5)cc1c32 (stereo not drawn) | i
Cc1sc2ncn(CC(=O)NCCCC(=O)N3CCCCC3)c(=O)c2c1C | i
CN(CC(=O)NCCc1ccccn1)S(=O)(=O)c1ccc(Cl)cc1 | i
O=C(O)CSc1nnc(COc2ccc(Br)cc2)n1-c1ccccc1 | i
COc1cc(C(=O)OCC(=O)NCc2ccc(F)cc2)ccc1OCC(C)C | i
CC(=O)NC(c1ccccc1)c1nc2ccccc2[nH]1 (stereo not drawn) | i
O=C(c1ccco1)N1CCN(C(=O)c2ccc(CS(=O)c3cccc(Cl)c3)o2)CC1 (stereo not drawn) | i
O=C(Nc1ccc(Br)cc1)C1CC(O)CN1C(=O)Oc1ccccc1 (stereo not drawn) | i
CC(C)CN=C(NS(=O)(=O)c1ccccc1)C(Cl)(Cl)Cl | i
Cc1cccc(N2CC(C(=O)Nc3nnc(SCCN4CCOCC4)s3)CC2=O)c1 (stereo not drawn) | i
CC1(C)C(=O)Nc2ccccc2N1C(=O)c1ccc([N+](=O)[O-])cc1 | i
OC(COc1ccc(-c2ccccc2)cc1)CN1CCOCC1 (stereo not drawn) | i
COCc1nnc(NC(=O)c2ccc3c(c2)OCO3)s1 | i
Cc1cc(NS(=O)(=O)c2ccc(NC(=O)c3cc4ccccc4o3)cc2)nc(C)n1 | i
O=C(Cn1cnc([N+](=O)[O-])n1)NCCc1ccccc1 | i
COc1ccccc1NC(=O)CSc1ccc(-c2cccs2)nn1 | i
O=C(NNC(=O)c1ccccc1Br)c1ccncc1 | i
COC(=O)CN1C(=S)N(C)C(=O)C1CC(=O)Nc1ccccc1 (stereo not drawn) | i
Cc1cc(C)n2nc(C(=O)NCCc3ccccc3)nc2n1 | i
Cc1cccc(-n2c(C)cc(/C=N/NC(N)=S)c2C)c1 | i
Cc1ccc(OCCNC(=O)c2cncc(Br)c2)cc1C | i
O=C(CNCC1CCCCC1)Nc1ccc(OC(F)(F)F)cc1 | i
COc1ccccc1N1CCN(C(=O)c2cc3cc(F)ccc3[nH]2)CC1 | i
COc1cc([C@@H]2CC=C(C(=O)O)[C@H](c3ccccc3)N2S(=O)(=O)c2ccc(C)cc2)cc(OC)c1OC | i
Cc1sc2nc(CSc3ccccc3)nc(NCCN(C)C)c2c1C | i
CCCCN(C)CCN1C(=O)C2C(C(=O)Nc3ccc(OC)cc3)C3C=CC2(O3)C1C(=O)NC1CCCCC1 (stereo not drawn) | i
Cc1ccccc1OCCn1c(=S)[nH]c2ccccc21 | i
COc1ccc(Nc2ncnc3c2cnn3Cc2ccccc2)cc1OC | i
CCN1C(=O)C(C)S/C1=N\S(=O)(=O)c1ccc(F)cc1 (stereo not drawn) | i
CC(C)(C)NC(=O)c1cccc(NC(=O)c2ccco2)c1 | i
COc1ccccc1-n1c(SCC(=O)c2ccc(O)cc2O)nc2cc([N+](=O)[O-])ccc21 | i
CCOc1ccc(/C=C(\C#N)C(=O)NC2CC2)c(OCC)c1 | i
Cn1c(=O)c2c(nc(SCC(=O)O)n2Cc2cccc(C(F)(F)F)c2)n(C)c1=O | i
CCCn1c(SCC(=O)Nc2nnc(CC)s2)nnc1-c1ccco1 | i
COC(=O)/C=C1/C(=O)N/C(=N\c2nc(C)cc(C)n2)N1c1ccc(OC)cc1 | i
COc1ccc(Nc2oc(COc3cccc(C)c3)nc2C#N)cc1 | i
COc1cccc(OC)c1C(=O)Nc1ccc(CN2CCCCC2)cc1 | i
COCCN1C(=O)C(CC(=O)Nc2ccc(C(C)=O)cc2)SC1=Nc1ccccc1 (stereo not drawn) | i
CSCC[C@H](NC(=O)OC(C)(C)C)C(=O)N/N=C/c1cccc2nccnc12 | i
CCCC(=O)Nc1cc(Cl)ccc1N1CCN(C(=O)CC)CC1 | i
CCCn1c(SCC(=O)Nc2nnc(C)s2)nnc1-c1ccoc1C | i
COCC(C)OC(=O)C(C#N)c1nc2ccccc2nc1N1CCN(Cc2ccccc2)CC1 (stereo not drawn) | i
C=CCn1c(SCC(=O)N2CCOCC2)nnc1C(C)NC(=O)c1ccccc1 (stereo not drawn) | i
O=C(O)Cc1csc(-c2cccc(Oc3ccccc3)c2)n1 | i

# By substructure, the entries above containing a tert-butyl group.
compound | CHT allo act
CC(C)(C)NC(=O)c1cccc(NC(=O)c2ccco2)c1 | i
CSCC[C@H](NC(=O)OC(C)(C)C)C(=O)N/N=C/c1cccc2nccnc12 | i

# The results go on:
compound | CHT allo act
Cc1cc(C)nc(/N=C(\N)N(Cc2ccccc2)Cc2ccccc2)n1 | i
Clc1ccc(-c2ccnc(-n3cccc3)n2)s1 | i
Cc1ccc(OCC(=O)NC2CCCc3ccccc32)c(C)c1 (stereo not drawn) | i
Cc1ccc(S(=O)(=O)n2nc(OC(=O)C3CCCCC3)cc2N)cc1 | i
Cc1cccc(NC(=O)c2ccc(-n3ccnc3)nc2)c1 | i
COc1cccc2cc(C(C)N(CCCN3CCOCC3)C(=O)Nc3ccc(Cl)cc3)oc12 (stereo not drawn) | i
COc1cc(OC)cc(C(=O)NC(=S)N(Cc2ccccc2)C(C)C)c1 | i
OCC1(CC2CCCCO2)CCN(Cc2cccc(O)c2)CC1 (stereo not drawn) | i
Cn1cc([N+](=O)[O-])c(C(=O)N2CCCCCC2)n1 | i
COc1ccccc1CNC(=O)[C@@H]1CCCN1C(=O)[C@@H]1Cc2ccccc2CN1C(=O)OC(C)(C)C | i
CCCNC(=O)c1cc(OC)c(OC)cc1[N+](=O)[O-] | i
Cc1cc(C)n(CC(=O)Nc2ccccc2)n1 | i
CC(=O)/C(N=Nc1cc(C)ccc1O)=C(\C)O | i
Cc1cccc[n+]1CC(=O)N1c2ccccc2Sc2ccccc21 | i
COc1ccccc1N1CCN(C(=O)c2sc3nc4n(c(=O)c3c2C)CCC4)CC1 | i
COc1ccc(-c2noc(CN(C(=O)c3ccc4c(c3)OCO4)C(C)C)n2)cc1OC | i
COc1ccc(C2(CNC(=O)c3ccc(Br)o3)CCOCC2)cc1 | i
CCOC(=O)c1nnn(-c2nonc2-c2ccccc2)c1C | i
COc1cccc(CN2CC(C(=O)N(C)Cc3[nH]c4ccccc4c3C)CCC2=O)c1 (stereo not drawn) | i
COc1ccccc1NS(=O)(=O)c1cc(NC(=O)CNC(=O)c2ccc(C)s2)ccc1Cl | i
O=C1CSc2nc3ccccc3n21 | i
Cc1cccn2c(NC(=O)c3cccs3)c(-c3ccccc3)nc12 | i
O=C(O)c1cccc(NC(=S)NC(=O)C(c2ccccc2)c2ccccc2)c1 | i
CC(C)OC(=O)C(C#N)c1nc2ccccc2nc1N1CCCC1 (stereo not drawn) | i
CN1CCN(CC(=O)C23CC4CC(CC(C4)C2)C3)CC1 | i

# Structural class: those above containing a CF3 group (3)
compound | CHT allo act
CCOC(=O)C(NC(C)=O)(Nc1ccc(S(=O)(=O)Nc2cc(C)on2)cc1)C(F)(F)F (stereo not drawn) | i
O=C(CNCC1CCCCC1)Nc1ccc(OC(F)(F)F)cc1 | i
Cn1c(=O)c2c(nc(SCC(=O)O)n2Cc2cccc(C(F)(F)F)c2)n(C)c1=O | i

# Continued.
compound | CHT allo act
Cc1cccc(Nc2nc(NC(C)C)nc(Oc3ccc(=O)n(C)n3)n2)c1 | i
COc1ccc(NC(=O)C2C3CCC(O3)C2C(=O)O)cc1OC (stereo not drawn) | i
O=C(NCCCn1ccnc1)/C(=C\c1ccccc1F)NC(=O)c1ccccc1 | i
COCCn1c(SCC(=O)NC2CCCCC2)nnc1-c1ccco1 | i
Cc1ccccc1NC(=O)COC(=O)c1cc[n+]([O-])cc1 | i
CCOc1ccc(C(=O)NC(=S)Nc2ccccc2N2CCCCC2)cc1[N+](=O)[O-] | i
CC(=O)Nc1ccc(Cl)cc1C(=O)O | i
CC(C)CCN1CCN(Cc2cnc(N3CCCC3)s2)CC1CCO (stereo not drawn) | i
CCOC(=O)c1ccc(NC(=O)CC2NCCNC2=O)cc1 (stereo not drawn) | i
COc1cccc(CN2CC(O)=C(c3nc(-c4ccc(Cl)cc4)cs3)C2=N)c1 | i
CCOC(=O)/C(C#N)=C/c1c(Oc2cccc(C)c2)nc2c(C)cccn2c1=O | i
COC(=O)c1ccccc1SCc1csc(C)n1 | i
COc1cc(OC)nc(NC(=O)C(C)C)n1 | i
Cc1cccc(-n2c(N)c(C(=O)NCCN3CCOCC3)c3nc4ccccc4nc32)c1 | i
CN(C(=O)COC(=O)c1cc(S(=O)(=O)N2CCOCC2)ccc1F)C1CCS(=O)(=O)C1 (stereo not drawn) | i
CCc1cc(=O)oc2c3c(cc(OCC(=O)NCc4ccccn4)c12)OC(C)(C)CC3 | i
CCCN1CNC(=S)N(c2ccccc2OCC)C1 | i
O=C(Nc1ccc(Cl)cc1)C1CCN(C(=O)NC2CCCCC2)CC1 | i
C=Cc1ccc(Cn2c(=O)n(C)c(=O)c3sccc32)cc1 | i
COc1ccc(-c2c3c(=O)n(C)c(=O)n(C)c3cn2NC(C)=O)cc1 | i
COC(=O)Cc1ccc(N(Cc2ccccc2F)S(=O)(=O)c2ccc(C)cc2)cc1 | i
CC1CCCCN1C(=O)COC(=O)/C=C/c1ccc2ccccc2n1 (stereo not drawn) | i
O=C(NN=C1CCCCCC1)c1c[nH]c2ccccc12 | i
COc1ccccc1-n1c(SCC(=O)OC(C)C)nc2cccnc21 | i
CCOc1cc(/C=C2\C(=O)N(c3cccc(C(=O)O)c3)N=C2C(F)(F)F)ccc1OCC(=O)Nc1ccccc1OC | i
CC(C)CCN(C(=O)Nc1ccccc1)C(C)c1cccs1 (stereo not drawn) | i
COc1ccccc1N(CC(=O)NC(C)(C)C)S(=O)(=O)c1cccs1 | i
O=C(COc1cccc(C(F)(F)F)c1)NNC(=O)Cn1c(=O)cnc2ccccc21 | i
Cc1ccc2c(c1)C1(OCCO1)C(=O)N2 | i
CCOC(=O)c1ccc(N2C(=O)Cc3ccccc3C2=O)cc1 | i
CCC(C)c1ccc(NC(=O)C2CC2)cc1 (stereo not drawn) | i
COc1ccc(CNC(=O)C2CSC(c3ccc(OC)cc3)N2C(C)=O)cc1 (stereo not drawn) | i
O=C(Cn1nc(-c2ccco2)ccc1=O)Nc1cc(C(F)(F)F)ccc1Cl | i
CC(C)(C)C(=O)N(Cc1ccccc1)c1ccccn1 | i
CCOCCCNC(=O)c1cccc(OC2CCN(S(C)(=O)=O)CC2)c1 | i
O=C(CSc1ncccn1)N/N=C/c1ccc(OC2CSC2)cc1 | i
COc1cccc(CN2C(=O)C(C)Oc3ccccc32)c1 (stereo not drawn) | i
COC(=O)N/N=C/c1ccccc1 | i
CC1(C)CC(=O)C2=C(C1)Nc1cc(C(=O)c3ccccc3)ccc1NC2c1ccccn1 (stereo not drawn) | i
CCOc1nc(SCCOc2ccc(Cl)cc2Cl)nc(N(C)C)n1 | i
FC(F)c1nnc2c(Cl)cc(C(F)(F)F)cn12 | i
O=C(NCc1nnc(SCC(=O)N2CCCC2)o1)c1ccc(F)cc1 | i
Cc1ccc(CSc2nnc(Cn3c(=O)sc4ccccc43)n2C)cc1 | i
CCc1c(O)nc(SCC(=O)Nc2ccc(OC)cc2)n(C2CCCCC2)c1=O | i
Cc1cc(C)n(-c2nncc(-c3ccccc3)n2)n1 | i
CC(=O)NC1C(=O)N=C(SCc2ccccc2)NC1=O (stereo not drawn) | i
O=C(Nc1nnc(-c2ccccc2SCc2ccccc2)s1)Nc1ccccc1F | i
O=C(O)C1Nc2c(C(F)(F)F)ccc(Cl)c2C2C=CCC12 (stereo not drawn) | i
COc1ccccc1N(CC(O)Cn1ccnc1C)S(=O)(=O)c1ccccc1 (stereo not drawn) | i
Cc1ccc(C(=O)N/N=C/c2ccc(S(=O)(=O)O)o2)c(Cl)c1 | i

# The list continues:
compound | CHT allo act
O=C(Nc1ccc(CN2CCOCC2)cc1)c1ccc(-c2ccc(Br)cc2)o1 | i
COc1ccc(C(CC(=O)c2ccc(O)cc2)S(=O)(=O)c2ccc(C)cc2)cc1 (stereo not drawn) | i
O=C(NC1(C(F)(F)F)N=C(c2ccccc2)NC1=O)c1ccc(Cl)cc1Cl (stereo not drawn) | i
CCOCCCNC(=S)N1CCC(NC(=O)C2CCCCC2)CC1 | i
COc1ccc(C(=O)CSc2nnc(COc3ccccc3)n2Cc2ccco2)cc1 | i
Cc1sc2c(c1C)C(=O)NC(c1cccc(O)c1)N2 (stereo not drawn) | i
Cc1cccc(Cn2c(C(C)O)nc3ccccc32)c1 (stereo not drawn) | i
COc1ccc(C(=O)Nc2ccccc2C(=O)O)cc1NC(=O)C(c1ccccc1)c1ccccc1 | i
Cn1cnnc1SCC(=O)Nc1ccc(Cl)cn1 | i

# Part of the list above in order of molar mass, descending.
compound | CHT allo act
COc1ccc(C(=O)Nc2ccccc2C(=O)O)cc1NC(=O)C(c1ccccc1)c1ccccc1 | i
O=C(Nc1ccc(CN2CCOCC2)cc1)c1ccc(-c2ccc(Br)cc2)o1 | i
COc1ccc(C(=O)CSc2nnc(COc3ccccc3)n2Cc2ccco2)cc1 | i
COc1ccc(C(CC(=O)c2ccc(O)cc2)S(=O)(=O)c2ccc(C)cc2)cc1 (stereo not drawn) | i
CCOCCCNC(=S)N1CCC(NC(=O)C2CCCCC2)CC1 | i
